Biofilm kill mix: mixture kills Candida albicans biofilm cells | AID 1242 | hit rate 0.02% among 120,000 | C. albicans biofilm persisters + clotrimazole, fluorescence viability; primary screen in compound mixtures of four per well | inhibition, % at 7.6 µM;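 active = inhibition above 30.3% in the primary screen of four-compound pools, then above 30% when the compound was retested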;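 also: compounds exposed to preformed 24 h biofilms for 48 h; the number belongs to the whole pool; some results filed as inactive read as strong as hits; inactives centre near 12; 0% = biofilm with clotrimazole alone and 100% = kill control; retested singly at about 60 µM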
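Test system: C. albicans CAF4-2 wild-type biofilms; buffer or medium: RPMI/MOPS medium, pH 7.0; schedule: 24 h biofilm formation, then 48 h compound exposure, 37 °C; detection: Alamar Blue fluorescence; measure: percent inhibition of biofilm viability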
* hit, by the source's call. An excerpt (hit frequency here may not be typical).

SMILES | Biofilm kill mix
CC1=C(C(=O)Nc2cccc(C)c2C)C(c2cccs2)NC(=S)N1 (stereo not drawn) | 5.7
NC(=O)/C(=C\c1ccccc1)NC(=O)/C=C/c1ccccc1 | 10.7
C/C(=N/NC(=O)c1ccc2c(c1)OCO2)c1ccc(NC(=O)C(F)(F)F)cc1 | 11.8
O=C(Nc1ccc(O)c(-c2nc3ccccc3o2)c1)C1(c2ccc([N+](=O)[O-])cc2)CCCC1 | 12.9
CCCC(=O)Oc1ccc(-c2nccc(C(OC)OC)n2)cc1 | 12.7
O=C(NN1C(=O)/C(=C\c2ccc(O)c([N+](=O)[O-])c2)SC1=S)c1ccccc1Cl | 15.9
O=C(COC(=O)CNC(=O)c1ccccc1F)NCCC1=CCCCC1 | 11.8
Cc1nc2oc3c(=O)[nH]cnc3c2c2c1COC(C)(C)C2 | 22.5
COc1ccc(NC(=O)COc2ccc(C(=O)OCC(=O)N(C)C3CCS(=O)(=O)C3)cc2OC)cc1 (stereo not drawn) | 5.2
CCOC(=O)C1=C(O)/C(=C/c2cc(C)n(-c3ccccc3)c2C)N=C1C | 20.3
COc1ccc(NC(=O)COC(=O)Cn2cnc3ccccc3c2=O)cc1OC | 14.2
COc1ccc(/C(N)=N/OC(=O)Oc2ccccc2)cc1OC | 8.2
O=C(Nc1ccccc1)c1ccccc1N=Cc1cccc(O)c1 | -0.2
O=C(CN1C(=O)/C(=C/c2ccccc2F)Oc2ccccc21)N1CCN(c2ccccn2)CC1 | 7.6
COc1ccc(Cc2c(O)nc(SCC(=O)NC(C)(C)C)[nH]c2=O)cc1 | 6.7
CC(=O)Nc1ccc(NC(=O)COC(=O)CCc2nc3ccccc3s2)cc1 | 18.5
CC(C)NC(=O)CN1CCC(c2ccccc2)C(O)C1 (stereo not drawn) | 8.5
O=S(=O)(NCc1ccccc1)c1cccc2nsnc12 | 28.3
CC(=O)SCC[N+](C)(C)C | 17.9
CC(=O)C1C(c2cccc(F)c2)c2c(n[nH]c2C)CC1(C)O (stereo not drawn) | 14.6

Next section; it opens with the 3 that closed the last part.
SMILES | Biofilm kill mix
O=S(=O)(NCc1ccccc1)c1cccc2nsnc12 | 28.3
CC(=O)SCC[N+](C)(C)C | 17.9
CC(=O)C1C(c2cccc(F)c2)c2c(n[nH]c2C)CC1(C)O (stereo not drawn) | 14.6
NC(=O)N/N=C/c1ccc2cccc(OCc3ccccc3)c2n1 | 3.7
O=C(N/C(=C/C=C/c1ccccc1)C(=O)N1CCOCC1)c1ccccc1Br | 19.1
Cc1ccc(C)c(OCC(=O)N2CCN(C(=O)c3ccco3)CC2)c1 | 19.3
C[C@@H]1NC(=O)[C@H](CCC(N)=O)NC(=O)c2cc([N+](=O)[O-])cc(I)c2NCC[C@@H](C(N)=O)NC1=O | 5.5
NC(=S)N/N=C/c1cccc(O)c1O | 7.0
C/C(=N\NS(=O)(=O)c1ccc(C)c([N+](=O)[O-])c1)c1ccc2c(c1)OCO2 | 7.0
Cc1ccc(NC(=O)COC(=O)c2cc(Cl)ccc2[N+](=O)[O-])cc1 | 8.2
CCOC(=O)N/N=C1\CCS(=O)(=O)c2ccc(Cl)cc21 | 7.3
COc1ccc(-c2csc(CCn3nc(C)cc3C)n2)cc1OC | 0.0
Cc1ccc(S(=O)(=O)N(CC(=O)NN=C2CCN(C)CC2)c2ccc(C(C)C)cc2)cc1 | 16.3
Cc1c(NC(=O)Nc2ccccc2Cl)c(=O)n(-c2ccccc2)n1C | 4.0
COc1ccccc1N(CC(=O)Nc1ccc(S(=O)(=O)N2CCCCC2)cc1)S(C)(=O)=O | 14.1
CC1(C)CC(=O)C2=C(C1)OC(c1ccc(O)cc1)C(C#N)=C2N (stereo not drawn) | 1.5
O=C(O)CC1S/C(=N/N=C/c2ccc([N+](=O)[O-])cc2)N(c2ccc(O)cc2)C1=O (stereo not drawn) | 12.2
O=C(/C=C/c1ccc(F)cc1)Nc1ccc2[nH]c(=O)[nH]c2c1 | 12.8
O=c1cnnc(N/N=C/C2CC=CCC2)[nH]1 (stereo not drawn) | 15.3
Cc1ccc(N2C(=O)C(CC(=O)Nc3cccc(F)c3)N(C3CC3)C2=O)cc1 (stereo not drawn) | 6.0
O=Cc1ccc(N2CCCC2)o1 | 10.7
COc1cc(C(=O)NCc2nnc(SCC(=O)Nc3nccs3)o2)cc(OC)c1OC | 10.1
COc1ccnc(Oc2ccc(Cl)cc2)c1C#N | 13.4
c1ccc(-c2ccc3c(c2)NC(C2Nc4cc(-c5ccccc5)ccc4O2)O3)cc1 (stereo not drawn) | 14.4
C#CCSc1nc(=O)c2cccnc2n1-c1ccc(C)cc1 | 14.8
Cc1c(Cl)cccc1NC(=O)CNC(=O)c1ccc(F)cc1 | 0.4
COc1ccc(-n2c(CN3CCN(Cc4ccccc4)CC3)nc3ccc([N+](=O)[O-])cc3c2=O)c(OC)c1 | 10.3
CC(C)Nc1nc(SC(C)C(=O)Nc2ccccc2)nc(N(C)C)n1 (stereo not drawn) | 15.4
N#Cc1c(Nc2ccccc2)sc(C(=O)c2ccc(F)cc2)c1N | 6.2
O=C(Nc1ccc(S(=O)(=O)Nc2ccccc2)cc1)c1ccc(CN2CCOCC2)cc1 | -2.0
O=C(Cc1ccc(Cl)c(Cl)c1)Nc1ccc(SC(F)F)cc1 | 14.8
O=C(Cn1cccc1C(=O)c1ccccc1)NCCC1=CCCCC1 | 15.8
OCCN1CCN(C(=S)Nc2cccc(C(F)(F)F)c2)CC1 | 14.6
C#Cc1ccc(C(=O)Nc2ccc(N3CCC(C)CC3)c(C(N)=O)c2)cc1 | 7.7
CN(C)S(=O)(=O)c1cc(NC(=O)COC(=O)Cc2cccc3ccccc23)ccc1Cl | 16.9
CCCCOC(=O)/C=C/c1ccc(OC(=O)OC)c(OC(=O)OC)c1 | 10.4
O=S(=O)(Nc1ccccc1O)c1ccc(-c2ccccc2)cc1 | 13.5
CC1CCCC(NC(=O)C2c3ccccc3C(=O)N2Cc2cccs2)C1C (stereo not drawn) | 18.8
Cc1cc(C)n(C(=O)/C(C#N)=N/Nc2cc(Cl)cc(Cl)c2)n1 | 8.7
Clc1ccc2c(c1)nc1n2CCCC1 | 21.1
COC(=O)c1ccc([C@@H]2C[C@H]3CN(Cc4cccnc4)C(=O)[C@]34CCCN24)cc1 | 19.6
CCOc1cc(CNc2ccc(N3CCCCC3)cc2)cc(Br)c1OCC(=O)NC(C)(C)C | 10.8
CNc1ccc(/C=C(\C#N)c2ccccn2)cc1[N+](=O)[O-] | 15.9
CCc1ccc(/C=C(\Cl)c2nc3cc(Cl)ccc3c(=O)[nH]2)cc1 | 16.0
O=C(NCc1ccc(Cl)cc1)c1n[nH]c([N+](=O)[O-])c1Cl | 16.2
COc1ccc(CC(=O)OCc2cc(=O)n3cc(Br)ccc3n2)cc1OC | 2.4
Cn1c(=O)c2c(nc(SCCN3CCCCC3)n2C)n(C)c1=O | 9.2
C[N+]1(C)CC2([N+](=O)[O-])CC=C(Oc3ccccc3)C([N+](=O)[O-])(C2)C1 (stereo not drawn) | 1.4
C/C=C/C(=O)Nc1nnc(-c2ccccc2C)s1 | 25.9
COc1ccc(NC(=S)NCc2cccnc2)cc1 | 13.3
CCCc1nc2sc3c(=O)[nH]cnc3c2c2c1CCCC2 | 8.4
COc1c(C)cc(C(=O)C2CCCN(C(=O)C3=C(C)OCCO3)C2)cc1C (stereo not drawn) | 10.0
CCOc1ccc(Nc2nnc(SCc3nc4ccccc4c(=O)[nH]3)s2)cc1 | 7.3
Cc1cccc(NCCC#N)c1 | 18.3
Cc1ccc(S(=O)(=O)NCC(c2ccco2)N2CCOCC2)cc1 (stereo not drawn) | 6.9
Cc1ccc(S(=O)(=O)CCc2nc3ccccc3[nH]2)cc1C | 12.6
Cc1ccc(/C=N/NC(=O)Cn2cncn2)cc1 | 1.5
N#CCC(=O)N/N=C/c1ccc(OC2CSC2)cc1 | 2.4
COc1cccc(N/C(N)=N/c2nc(C(F)(F)F)cc(=O)[nH]2)c1 | 13.3
CCN(Cc1ccccc1)C(=O)COC(=O)Cn1cnc2ccccc21 | 12.5
CCOC(=O)c1ccc(NC(=O)CSc2nnc(C3CC3)n2C)cc1 | 14.7
COC(=O)C1=C(C)N(Cc2ccccc2)C(=O)N[C@H]1c1ccccc1 | 18.8
O=S1(=O)CCN2N=C(C34CC5CC(CC(C5)C3)C4)SC2=N1 | 4.7

The listing continues:
SMILES | Biofilm kill mix
COc1ccc(NC(=O)C(c2ccccn2)N(C(C)=O)c2ccc(C)cc2)cc1 (stereo not drawn) | 12.7
S=C(NCc1ccccc1)NNc1ccccc1 | -6.7
COc1ccc(C(=O)COC(=O)C(CCCCN2C(=O)C3C4C=CC(C4)C3C2=O)N2C(=O)C3C4C=CC(C4)C3C2=O)cc1 (stereo not drawn) | -2.7
O=C(Nc1ccc(F)cc1)Nc1cc(S(=O)(=O)N2CCOCC2)ccc1N1CCCC1 | 4.8
COc1ccc(CNC(=O)c2noc(C(C)C)c2[N+](=O)[O-])cc1 | 22.6
COC(=O)C1=C(C)NC(C)=C(C(=O)OC)C1c1ccccc1[N+](=O)[O-] | 6.3
Nc1nc(-c2ccc(Br)cc2)c(S(=O)(=O)c2ccccc2)s1 | 2.7
Clc1ccc(-c2nnc3n2CCCCS3)cc1 | 12.2
CCOc1cccc2cc(C(C)=O)oc12 | 18.6
COc1ccc(/C=N/NC(=O)Cn2ccnc2C)cc1OC | 12.9
Oc1ccc(CCc2n[nH]c(=S)n2-c2ccc(F)cc2)cc1 | 12.1
COc1cc(C2C(C#N)=C(N)Oc3n[nH]c(-c4cccnc4)c32)cc(Br)c1O (stereo not drawn) | 15.6
Cc1ccc(OC(=O)c2cccc(S(=O)(=O)N3CCCC3)c2)c(-n2nc3ccccc3n2)c1 | 18.2
CC1=C(CC(=O)O)c2cc(F)ccc2/C1=C\c1ccc(S(C)=O)cc1 (stereo not drawn) | 17.6
CN(C)CCOc1ccc(Cl)cc1C(C)(C)C | 9.0
NS(=O)(=O)c1ccc(NC(=O)Cc2c(F)cccc2Cl)cc1 | 9.8
COc1ccc(CC(=O)Nc2cc(S(=O)(=O)N3CCCCC3)ccc2N2CCN(C)CC2)cc1 | 1.8
COc1cc(CCC(=O)Nc2ccc(S(=O)(=O)NC3=NCCCCC3)cc2)cc(OC)c1OC | -9.6
COCCCNc1nc2ccccc2[nH]c1=O | 13.1
OCCCNc1nccc(-c2cc(Nc3cccc(Cl)c3)ncn2)n1 | 16.2
CC(=O)C12C3C4C(C5C1C3C5(Br)C41OCCO1)C21OCCO1 (stereo not drawn) | 13.1
Cc1cccc(Nc2nnc(SCc3cc(=O)n4cc(C)ccc4n3)s2)c1 | 6.7
CC1(C)CC(=O)C2=C(C1)N1C(=C(C#N)C2c2ccccc2Cl)N=C(N)c2ccccc21 (stereo not drawn) | 6.5
O=C(COC(=O)c1cccc2ccccc12)NCC1CCCO1 (stereo not drawn) | 11.5
N#Cc1c(N)nc2c(c1-c1ccccc1)CCC2 | 15.2
CCCC[C@@H]1CNC(=O)C(=O)N1CC(C)(C)C | 6.2
CCOC(=O)c1cnc(COc2ccccc2Cl)[nH]c1=O | 22.2
N/N=C/C(=N\Nc1ccc(Cl)cc1)C(=O)c1ccncc1 | 16.7
Cc1ccc([N+](=O)[O-])cc1NCC(=O)NN | 10.3
CCN(CC)S(=O)(=O)c1cc(NC(=O)CN2C(=O)NC3(CCCc4ccccc43)C2=O)ccc1C (stereo not drawn) | 14.1
Cc1sc(NC(=O)c2ccccc2)c(C(=O)c2ccccc2)c1C | 12.4
Cc1cccn2c(=O)c(/C=C(\C#N)C(=O)NCc3ccco3)c(N3CCCC(C)C3)nc12 (stereo not drawn) | 15.9
CN1OCC(S(=O)(=O)c2ccccc2)C1c1ccccc1 (stereo not drawn) | 1.4
COc1cc(-c2cc(C(=O)Nc3nc4ccccc4s3)c3ccccc3n2)cc(OC)c1OC | 4.1
CC1=C(C#N)C(=O)NC(=O)/C1=C/c1ccc(-c2ccc(S(N)(=O)=O)cc2)o1 | 3.1
CCN(CC)CCCNC(=O)c1ccc2c(SCC(=O)O)c3c(nc2c1)CCC3 | 19.3
COc1ccc(NC(=S)NNC(=O)c2nnn(-c3ccccc3)c2C)cc1 | 6.0
Cc1c(C(=O)NC(C)C)c(-c2ccccc2)nn1-c1ccccc1 | 4.1
CCOC(=O)Cn1cc(/C=N/N2C(=O)C3C4C=CC(C4)C3C2=O)c2ccccc21 (stereo not drawn) | 17.1
CN(Cc1ccccc1)C(=O)c1nc2ccccn2c1CNCCn1cccn1 | 14.9
CCN(CCCNC(=O)CCn1c(=O)[nH]c2ccsc2c1=O)c1ccccc1 | 9.7
CC(Oc1cccc2c1OC(C)(C)C2)C(=O)O (stereo not drawn) | 14.0
C/C(=N\Nc1ccc(F)cc1)c1ccncc1 | 13.2
Cc1cc(N2CCN(C)CC2)nc2ccc(NC(=S)NCCCN3CCN(C)CC3)cc12 | 11.6
CC(C)Cn1c(O)c(N=NC(=O)c2cccc(S(=O)(=O)N3CCCCC3)c2)c2ccccc21 | 10.8
CCCNC(=O)NC1CCCCCCC1 | 20.1
CCOc1ccccc1CN1CCN(Cc2cc3ccccc3[nH]2)CC1CCO (stereo not drawn) | 6.0
